# Compound activity (PubChem BioAssay)
# Mtb H37Rv = Mycobacterium tuberculosis H37Rv growth inhibition, cell based, confirmatory dose response (AID 1949); most inactive calls were filed without a number and no value below 0 was filed; one-dose inhibition, % at 10 µg/mL; IC50 in µg/mL for titrated hits; hit rate 1.6% among 100,000;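 active means confirmed in a dose series; inconclusive means about 50% or more but not retested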;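 further: bacteria grown 7 days with compound before Alamar blue readout; 0% = untreated bacteria and 100% = reference antibiotic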
# * hit, by the source's call; i = inactive; ? = inconclusive. These rows are one share of the data (hit frequency here may not be typical).
SMILES | Mtb H37Rv
COCCN1C(=O)C(O)=C(C(=O)c2cccs2)C1c1ccc(F)cc1 (stereo not given) | i
O=C1c2ccccc2C(=O)N1c1n[nH]c(CCc2ccccc2)n1 | i
COc1ccccc1NS(=O)(=O)c1cccc(S(=O)(=O)c2ccccc2)c1 | i
CCN1CCN(c2ccc(NC(=O)c3cc(Br)cc(C)c3OC)cc2Cl)CC1 | 4.8µg/mL*
O=C(O)c1cccc(C(=O)c2cccc(C(=O)O)c2)c1 | i
COC(=O)Cc1c(C)c2cc(Cl)c(OCC(=O)c3ccc(Cl)c(Cl)c3)cc2oc1=O | i
N#Cc1c(-c2cccs2)cc(-c2cccs2)nc1SCc1ccncc1 | i
NC(=O)c1cc(NC(=O)c2cccs2)ccc1N1CCOCC1 | i
CCc1cc(=O)oc2cc(OCC(=O)c3ccc(F)cc3)c(Cl)cc12 | i
Cn1c(SCc2ccc3c(c2)OCO3)nnc1-c1ccccc1 | 10%
Cn1c(Cn2nnc(-c3ccccc3)n2)nnc1SCc1ccccc1Cl | i
Cc1cc(Br)cc(C)c1OCC(=O)Nc1ccc([N+](=O)[O-])cc1 | i
CC(=O)Oc1ccc(-c2cccc(C(=O)N3CCCCC3)c2)cc1 | 29%
C=CCn1c(SCC(=O)c2ccc(Cl)s2)nc2sc(C)c(C)c2c1=O | i
COC(=O)CCN1C(=O)/C(=C/c2ccc(OCc3ccccc3)c(OC)c2)SC1=S | 2%
CCCN(CCC)S(=O)(=O)c1ccc(NS(=O)(=O)c2ccc(F)cc2)cc1 | 3%
Cc1c(CC(=O)O)c(=O)oc2cc(OCc3ccc(C(=O)O)cc3)ccc12 | i
O=C(C1=C(O)C(=O)N(CCN2CCOCC2)C1c1ccccn1)c1cccs1 (stereo not given) | i
O=C(Nc1nncs1)c1c(F)c(F)c(F)c(F)c1F | i
CC(=O)Nc1ncc(CN2CCOCC2)s1 | i
NS(=O)(=O)c1ccc(CNC(=O)c2cc(-c3ccc(Br)cc3)nc3ccccc23)cc1 | 36%
C(=C\c1ccccc1)/CN1CCN(c2nc(-c3ccccc3)cs2)CC1 | i
COc1ccc(C(=O)NC(=S)NCC2CCCO2)cc1 (stereo not given) | i
CCN(C(=O)C(=O)c1c(-c2ccccc2)cc2ccccn12)c1ccccc1 | i
Cc1ccc(-c2nn(C)c(=O)c3ccccc23)cc1CNS(C)(=O)=O | i
O=C(NCCc1ccc(Cl)cc1)c1cc(-c2cccnc2)nc2ccc(Cl)cc12 | i
Cc1ccc(N2CC(C(=O)Nc3ccncc3)CC2=O)cc1 (stereo not given) | i
CCOc1ccc(Cc2nnc(SCC(N)=O)n2-c2ccccc2)cc1 | i
COc1ccc(C(=O)CCC(=O)Nc2ccc(C)c(Cl)c2)cc1 | i
O=C1CC(c2c(F)cccc2Cl)c2cc3c(cc2N1)OCCO3 (stereo not given) | i

# A stretch of the results above, as a working copy:
SMILES | Mtb H37Rv
CCOc1ccc(Cc2nnc(SCC(N)=O)n2-c2ccccc2)cc1 | i
COc1ccc(C(=O)CCC(=O)Nc2ccc(C)c(Cl)c2)cc1 | i
O=C1CC(c2c(F)cccc2Cl)c2cc3c(cc2N1)OCCO3 (stereo not given) | i

# Continued.
SMILES | Mtb H37Rv
COCCn1c(SCC(=O)Nc2ccc(Br)c(C)c2)nnc1-c1ccccc1 | i
COC(=O)C1=C(C)NC(C)=C(C(=O)OC)C1c1sccc1C | i
Cc1c(C(=O)OCc2ccccc2)sc(N)c1C#N | i
O=[N+]([O-])c1ccc(-c2ccc(-c3csc(Nc4ccccc4)n3)o2)cc1 | 6%
O=C(Cn1nc(C(F)(F)F)c2c1CCC2)N(Cc1ccccc1)c1ccccc1 | 0%
CC(=O)c1cccc(NC(=O)C(C)(c2ccccc2)c2ccccc2)c1 | i
COc1ccc(CCN2C(=O)CN(Cc3ccccc3)CC2=O)cc1OC | 3%
CC(C)(C)c1ccc(OCC(=O)NCCN2CCOCC2)cc1 | 2%
CC(=O)NS(=O)(=O)c1ccc(NC(=O)C(F)(F)F)cc1 | i
CCC(C)(C)NC(=O)Cc1ccc(F)cc1 | i
COc1ccc(Br)cc1C(=O)Nc1ccc(CN2CCOCC2)cc1 | i
CCc1ccc(OCC(=O)Nc2nc3ccccc3s2)c(Br)c1 | i
Cc1ccccc1N1CCN(C(=S)c2ccc(O)cc2)CC1 | i
CCc1cc(C(=O)OC)c(NC(=S)Nc2ccccc2I)s1 | i
Cc1cc(C)cc(C(=O)Nc2cccc(-c3nc4ccccc4[nH]3)c2)c1 | 27%
O=C(Nc1nc(-c2ccc(Br)cc2)cs1)c1cccc(Cl)c1 | i
CCNC(=O)CC1C(=O)N(Cc2cccs2)C(=S)N1Cc1ccc(OC)cc1 (stereo not given) | 0%
Cc1[nH]c2ccc(-c3nnc(SCC(=O)NCc4ccc(F)cc4)o3)cc2c1C | 0%
CCNCc1cc(OC)c(OC)cc1OC | i
O=C(Nc1nc2c(s1)CCCC2)C(Cl)(Cl)Cl | i
CN1C(=O)C(O)(CC(=O)c2ccco2)c2cc([N+](=O)[O-])ccc21 (stereo not given) | 4%
COc1ccc(CC(=O)Nc2cccc(NC(=O)Cc3ccc(OC)c(OC)c3)n2)cc1OC | i
CCCNC(=O)CN(C1CCCCC1)S(C)(=O)=O | i
CC1CCc2c(sc3ncnc(N4CCOCC4)c23)C1 (stereo not given) | i
Clc1ccc(OCc2nc3ccccc3n2Cc2ccccc2)cc1 | i
O=C1CC(N2CCC(O)(c3ccc(Cl)cc3)CC2)C(=O)N1c1ccc(F)cc1 (stereo not given) | i
CCn1c(CSCc2ccccc2)nnc1SCC(=O)Nc1cccc(C(F)(F)F)c1 | i
O=C(Nc1cccc([N+](=O)[O-])c1)c1cn(-c2ccccc2)nc1-c1ccncc1 | i
Cc1ccc2oc(C(=O)Nc3ccccc3C(F)(F)F)c(C)c2c1 | i
COc1ccc([N+](=O)[O-])cc1CSc1nnc(NC(=O)c2ccccc2Br)s1 | i
CCN(CC)C(=O)c1cc2sc3ccccc3c2s1 | 10%
O=C(Nc1ccccc1C(F)(F)F)NC1CCCCCCC1 | i
CCOC(=O)c1c(NC(=O)CN2CCN(C)CC2)sc2c1CCC(C)C2 (stereo not given) | 5.8µg/mL*
CC1(CCc2ccc3c(c2)OCO3)NC(=O)c2ccccc2N1 (stereo not given) | 0%
COc1ccccc1NC(=O)c1sc2ncn(CC(=O)N3CCCCC3)c(=O)c2c1C | i
CCC(=O)N(Cc1cc2ccccc2[nH]c1=O)c1cccc(C)c1 | i
Cc1nc2nc(NCc3ccccc3Cl)[nH]n2c(=O)c1C | i
CCCS(=O)(=O)N1CCN(C2CCC(c3ccccc3)CC2)CC1 (stereo not given) | 1%
Cc1ccc(S(=O)(=O)NCC(=O)Nc2cccc(C)c2)cc1 | i
CCOc1ccc2nc(SCC(=O)Nc3ccc(Cl)cn3)sc2c1 | i
O=S(=O)(c1ccc(NC(=S)NCc2ccc(Cl)cc2)cc1)N1CCCC1 | 35%
COc1ccc(NC(=O)CSc2nnnn2-c2ccc3c(c2)OCO3)cc1Cl | i
O=C(CN(C1CCCCC1)S(=O)(=O)c1ccc(Cl)cc1)Nc1ccc(F)cc1F | i
Cc1ccc(C(=O)NC(C)(C)C)cc1I | i
O=C(NC(=S)Nc1cccc(Cl)c1N1CCOCC1)c1cccs1 | i
CCOC(=O)COc1ccc(/C=C/[N+](=O)[O-])cc1OC | 50%
C=CCc1cc(C)ccc1OCCCNCCN | i
Cn1nc(-c2ccc(C(=O)NCCCO)cc2)c2ccccc2c1=O | 7%
O=C(COc1ccc(F)cc1)NCCN1CCOCC1 | i
O=C(NC(=S)Nc1ccc(S(=O)(=O)N2CCCCC2)cc1)C1CCCCC1 | 41%
Cc1nc(SCC(=O)c2ccc(F)cc2)c([N+](=O)[O-])[nH]1 | i
O=C(CCC(=O)OCc1ccc(Cl)cc1)Nc1cccc([N+](=O)[O-])c1 | i
O=C(O)CC1C(=O)N(c2ccccc2)C(=S)N1c1ccccc1 (stereo not given) | i
CCOc1cc(C2C3=C(CCCC3=O)N(C)C3=C2C(=O)CCC3)ccc1OCc1ccccc1 | 4%
CCC(C)NC(=O)C1CC(=O)N(c2ccc(OC)cc2)C1 (stereo not given) | i
O=C(CCCN1C(=O)c2ccccc2C1=O)Nc1cccc2c1CCCC2 | i
Cc1ccccc1CNC(=O)c1ccccc1NS(C)(=O)=O | i
O=C1CC(c2ccc(F)cc2)c2cc3c(cc2N1)CCC3 (stereo not given) | 39%
CCCn1cc(C(CC(=O)O)C(=O)O)c2ccccc21 (stereo not given) | i
COc1c(S(=O)(=O)N2CCN(c3cccc(Cl)c3C)CC2)ccc(Cl)c1Cl | i

# Sorted by length of the SMILES (low to high): part of the list above.
SMILES | Mtb H37Rv
Cc1ccc(C(=O)NC(C)(C)C)cc1I | i
Cc1ccccc1CNC(=O)c1ccccc1NS(C)(=O)=O | i
O=C1CC(c2ccc(F)cc2)c2cc3c(cc2N1)CCC3 (stereo not given) | 39%

# Continuation.
SMILES	Mtb H37Rv
Cc1c2c(=O)n(-c3nc4ccccc4s3)[nH]c2cc(=O)n1CCc1ccccc1	i
COc1cccc(CN2CCN(Cc3ccncc3)CC2)c1	0%
COc1ccc(S(=O)(=O)N2CCN(c3cccc(C)c3C)CC2)cc1	i
CCC(C)N(C(=O)c1c(F)c(F)c(F)c(F)c1F)C(C)CC (stereo not given)	i
O=C(c1ccco1)N1CCN(Cc2nc3ccccc3c(=O)n2-c2ccc(F)cc2)CC1	i
COc1ccc(N(C)NC(=O)Cc2ccccc2)cc1	i
COc1ccc(Cc2nnc(NC(=O)c3cccc(I)c3)s2)cc1	i
CC(C)NC(=O)C(=O)Nc1ccc(C(C)(C)C)cc1	1%
Cc1nnc(SCc2ccccc2C#N)s1	i
Cc1ccc(C)c(C(=O)Nc2ccccc2C#N)c1	i
CC(C)C(=O)N1CCN(c2ccccc2NC(=O)c2cccc([N+](=O)[O-])c2)CC1	i
Cn1c(SCC(=O)c2c[nH]c3ccccc23)nnc1-c1ccco1	i
COc1ccc2c(c1)-c1c(ssc1=S)C(C)(C)N2C(=O)CSc1nccn1C	8%
S=c1[nH]nc(-c2ccncc2)n1-c1ccc2c(c1)OCCO2	i
O=C(NCCc1ccccc1)c1ccccc1-c1nc2ccccc2[nH]1	9%
Cc1cccc(Nc2nc(-c3ccc(F)c(C)c3)cs2)n1	1%
O=C(NCc1ccccc1Cl)C(=O)Nc1ccccc1Cl	i
O=Cc1ccc(OCC(=O)N2CCOCC2)cc1	i
N#C/C(=C/c1ccc(O)cc1)c1ccc(C#N)cc1	16%
O=C(Nc1ccccc1C1CC1)c1cccc(Cl)c1	i
COc1ccc(NC(=S)N2CCN(Cc3c(C)nn(C)c3C)CC2)cc1OC	i
CCc1ccc(N2C(=O)CC(SCC(=O)Nc3ccccc3)C2=O)cc1 (stereo not given)	i
CC(C(=O)N1CCC(c2ccccc2)C1)(c1ccccc1)c1ccccc1 (stereo not given)	i
CCNc1nc(NC(C)C)nc(OCCOC(C)=O)n1	0%
CCCCNC(=O)c1ccccc1NS(C)(=O)=O	2%
Cc1cc(Br)ccc1OCCn1ccnc1	?
CCOC(=O)c1ccc(COc2ccc(C=O)cc2OC)cc1	i
N#Cc1ccccc1CSc1ncn[nH]1	i
CCn1c(SCC(=O)Nc2ccc([N+](=O)[O-])cc2C)nnc1-c1ccc(Cl)cc1	i
COc1ccc(NC(=O)CN(c2cccc([N+](=O)[O-])c2)S(C)(=O)=O)cc1OC	i
COc1cc(C=O)ccc1OCCOc1ccc(Br)cc1Cl	i
O=C(c1cccs1)N1N=C(c2ccco2)CC1c1ccco1 (stereo not given)	i
COc1ccccc1NC(=O)CSc1nc(C)nc2sc(-c3ccccc3)cc12	i
N#Cc1cc2c(nc1SCC(O)COCc1ccccc1)CCCC2 (stereo not given)	1%
Cc1cccc(C(C)C)c1NC(=O)c1cccc(Cl)c1	i
CN1CCN(CC(=O)Nc2ccc([N+](=O)[O-])cc2C(=O)c2ccccc2)CC1	i

# An excerpt of these results, with each value named.
smiles: CCn1c(SCC(=O)Nc2ccc([N+](=O)[O-])cc2C)nnc1-c1ccc(Cl)cc1
  Mtb H37Rv: i

smiles: COc1ccc(NC(=O)CN(c2cccc([N+](=O)[O-])c2)S(C)(=O)=O)cc1OC
  Mtb H37Rv: i

smiles: COc1cc(C=O)ccc1OCCOc1ccc(Br)cc1Cl
  Mtb H37Rv: i

smiles: O=C(c1cccs1)N1N=C(c2ccco2)CC1c1ccco1 (stereo not given)
  Mtb H37Rv: i

# The results go on.
SMILES	Mtb H37Rv
Cc1ccc(S(=O)(=O)Nc2ccc(NC(=S)NC3CCCC3)cc2)cc1	i
O=C(NCCCc1ccccc1)C1c2ccccc2Oc2ccccc21	i
CC(C)OCC(O)CN1CCN(CC(O)COc2ccc3c(c2)OCO3)CC1 (stereo not given)	i
O=C(Nc1ccc(N2CCN(Cc3ccccc3)CC2)cc1)c1ccc(-c2ccc(Cl)cc2)o1	i
Cc1ccc(NC(=O)c2ccc(-c3nn(C)c(=O)c4ccccc34)cc2)cc1	3%
CC1CCCN(CCCCOc2cc(Cl)ccc2Cl)C1 (stereo not given)	i
O=C(NC1CCCCC1)C(=O)N1CCN(c2ccccc2F)CC1	i
O=c1cnnc(N/N=C/c2ccccc2Br)[nH]1	5%
COc1ccc(NC(=O)COc2ccc(-c3ccccc3)cc2)cc1OC	39%
C=CCOc1cccc(CNn2cn[nH]c2=S)c1	4%
Cc1[nH]c(=O)[nH]c(=O)c1NS(=O)(=O)c1ccccc1	i
O=C(NCc1cccnc1)c1ccc(-c2ccccc2[N+](=O)[O-])o1	i
COC(=O)C(NC(=O)c1ccccc1)(c1c(C)[nH]n(-c2ccccc2)c1=O)C(F)(F)F (stereo not given)	0%
COc1cccc(CNC(=O)C(=O)Nc2cc(C)cc(C)c2)c1	1%
